# GALR2 ag – activates the human galanin receptor 2. O43603. hit rate 0.48% among 140,000. GALR2-expressing cells, agonist activation read-out. activation, %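 (tested at 5 µM)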;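 active = above mean plus 3 SD of all compounds, about 5% in these data, not always enough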;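 also: 0% = vehicle buffer wells and 100% = reference agonist at full effect; tested in CHO reporter cells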
# Target sequence (O43603 whole entry, looked up): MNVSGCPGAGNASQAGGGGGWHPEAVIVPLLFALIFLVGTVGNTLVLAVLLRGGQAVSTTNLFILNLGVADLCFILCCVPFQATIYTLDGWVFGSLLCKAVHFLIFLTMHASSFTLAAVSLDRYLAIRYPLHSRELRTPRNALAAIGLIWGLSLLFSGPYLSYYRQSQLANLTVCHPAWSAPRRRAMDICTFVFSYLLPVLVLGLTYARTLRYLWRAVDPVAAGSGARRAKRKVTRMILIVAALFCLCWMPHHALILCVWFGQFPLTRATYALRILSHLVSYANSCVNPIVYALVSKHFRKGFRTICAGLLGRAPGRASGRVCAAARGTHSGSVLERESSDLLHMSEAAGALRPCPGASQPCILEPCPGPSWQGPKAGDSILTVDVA
# RGS16-Gao – modulates binding between human RGS16 and Galphao | AID 1441 | binding response (% of control), % at 10 µM | O15492+P09471 | hit rate 0.38% among 220,000 | bead-based flow cytometry RGS16-Galphao binding, fluorescence; actives lie on both sides;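 active = below 25% or above 175%, edge rows of some plates excepted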;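 also: Galphao activated by GDP with aluminum fluoride before binding; 100% = wells without compound and 0% = beads without RGS; some results beyond the cut were filed as inactive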
# Target sequence (O15492 whole entry, looked up): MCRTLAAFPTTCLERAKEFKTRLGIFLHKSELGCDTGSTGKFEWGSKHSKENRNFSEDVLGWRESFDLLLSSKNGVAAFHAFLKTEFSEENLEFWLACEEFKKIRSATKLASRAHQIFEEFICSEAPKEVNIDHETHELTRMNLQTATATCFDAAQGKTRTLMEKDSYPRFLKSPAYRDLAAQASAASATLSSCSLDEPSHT
# Target sequence (P09471 whole entry, looked up): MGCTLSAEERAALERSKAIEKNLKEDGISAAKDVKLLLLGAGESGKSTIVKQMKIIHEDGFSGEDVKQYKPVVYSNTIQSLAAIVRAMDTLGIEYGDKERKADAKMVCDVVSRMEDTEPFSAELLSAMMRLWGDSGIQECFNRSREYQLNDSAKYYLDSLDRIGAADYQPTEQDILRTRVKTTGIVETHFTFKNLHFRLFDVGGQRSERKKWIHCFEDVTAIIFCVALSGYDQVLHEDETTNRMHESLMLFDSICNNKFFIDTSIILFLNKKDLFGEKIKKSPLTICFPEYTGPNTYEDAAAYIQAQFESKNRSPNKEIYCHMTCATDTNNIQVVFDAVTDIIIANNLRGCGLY
# HSV augment – HSV replication enhancement | HSV replication augmentation in cells, fold increase | maximum fold increase | hit rate 0.005% among 220,000;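 active = peak rise of 1.5-fold or more in the series; tested in PC3 cells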;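 also: first round at 10 µM; read as green reporter fluorescence; hits show the peak of a series up to 25 µM; 1 = signal of infected wells without compound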
# PKD1 kinase inh – PKD1 (human) kinase inhibition; inhibition, %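 (about 10 µM by stock and volumes)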; PKD1 kinase fluorescence polarization assay; hit rate 0.056% among 200,000; AID 797; Q15139;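 active = inhibition of 50% or more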;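 also: controls were vehicle for no effect and a reference inhibitor for full effect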
# Insulin prom inh – TRM-6 insulin promoter activity inhibition | TRM-6 cells (human fetal islet line), insulin promoter-eGFP reporter, imaging; reporter expression induced with tamoxifen | inhibition, % at 2 µM | hit rate 0.9% among 130,000 | AID 1273;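 active = inhibition above the mean plus 3 SD, with well images judged a real hit on visual review, cut at about 60% in these data, passing the limit was not always enough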
# Insulin prom inh cell count – also measured in Insulin prom inh; calls as there; normalized cell count, %; measured here: cell count, toxicity; reference of the scale not given here;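 cells exposed to compound for 48 h; stained nuclei by imaging scaled within each plate; lower means fewer cells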
# HSV augment primary fold – further read-out of HSV augment, marked with its call; fold increase; compound at 10 µM; measured here: primary screen fold increase 10 uM; tested in PC3 cells;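 GFP signal in the first replicate; 1 = infected wells without compound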
# Active calls of the source: *; i = inactive; . = not tested or not shown. Random draw from the library; 1.2% or so of the library scored in one or more.
# Every second line gives: GALR2 ag	RGS16-Gao	HSV augment	HSV augment primary fold	PKD1 kinase inh	Insulin prom inh	Insulin prom inh cell count
> Cc1cccc(C)c1OCC(=O)NCc1nnc(SCC(=O)NC2CCCCC2C)n1C (stereo unspecified)
→ -2.4	105.3	i	0.73	-4.9	-86.4	51.8
> COCCNC(=O)c1cnn2c1NC(c1ccco1)CC2C(F)(F)F (stereo unspecified)
→ -0.9	112.3	i	1.03	-10.2	25.0	169.2
> O=C(Nc1ccc(F)cc1F)c1cc(=O)n(-c2ccccc2)c(=O)[nH]1
→ .	99.1	i	0.86	-1.5	0.0	65.7
> O=C(Oc1c(-c2ccccc2)c(=O)n2c3c(cccc13)CC2)c1ccc(F)cc1
→ .	95.6	i	0.93	.	.	.
> NC(=O)[C@@H]1CCCCNc2c(F)cc([N+](=O)[O-])cc2C(=O)N[C@@H](CCCN=C(N)N)C(=O)NCC(=O)N1
→ -0.8	97.7	i	0.87	-6.4	20.0	125.0
> CC(C)(C)C(=O)n1nc(-c2ccccc2)oc1=O
→ -1.0	111.6	i	1.04	4.2	.	.
> CCN(CC)S(=O)(=O)c1ccc(N2CCOCC2)c(NC(=O)C23CC4CC(CC(Cl)(C4)C2)C3)c1
→ 1.8	110.6	i	0.8	-4.9	-25.5	117.3
> COc1ccc(C(=O)NCc2nnc(SCC(=O)NCc3ccc(F)cc3)o2)cc1
→ -3.4	104.0	i	1	-12.4	-3.6	100.0
> Cc1cccc(OCC(=O)NCc2ccncc2)c1C
→ -1.3	101.9	i	0.81	-4.2	.	.
> O=C(CN(CC1CCCO1)C(=O)CNS(=O)(=O)c1ccc(F)cc1)NCc1ccco1 (stereo unspecified)
→ .	104.3	i	0.96	-1.1	-60.0	108.1
> COc1ccc(N2CC(=O)N(c3ccc(OC)c(OC)c3)CC2=O)cc1OC
→ -0.9	90.6	i	0.86	-9.5	.	.
> CCN1C(=O)CC(N2CCN(c3cccc(OC)c3)CC2)C1=O (stereo unspecified)
→ .	82.7	i	1.03	3.0	0.0	108.4
> CC(C)(C)NC(=O)NC(=O)COC(=O)C1(C)CC1(Cl)Cl (stereo unspecified)
→ .	8.8	i	1.01	-2.5	.	.
> CCOC(=O)CSC1=C(C#N)C(c2sccc2C)CC(=O)N1 (stereo unspecified)
→ -0.7	100.0	i	0.69	-6.6	-163.6	18.6
> O=C(Nc1cccc2c1CCCC2)c1ccc(Br)o1
→ -1.0	103.1	i	1.03	-22.7	26.9	104.0
> COc1ccccc1NC(=O)CSc1nc(N)cc(N)n1
→ -2.0	99.7	i	1.02	-9.2	-336.4	36.8
> COC(=O)Cn1c(=NC(=O)c2ccc([N+](=O)[O-])s2)sc2cc(Br)ccc21
→ 0.6	115.0	i	0.91	-1.1	-25.0	48.8
> O=C(N/N=C\c1cn(-c2ccccc2)nc1-c1ccccc1)c1ccc(Br)o1
→ -1.0	102.7	.	.	-2.9	-73.3	122.0
> Cc1nc2ncnn2c(C)c1CCC(=O)NC(C)c1ccc2c(c1)OCCO2 (stereo unspecified)
→ -0.7	108.1	i	0.8	-26.2	-23.1	86.7
> Cc1ccc(NNC(=O)c2cccs2)cc1Cl
→ .	101.2	i	1.02	.	.	.
> CC1(C(=O)Nc2ccc3ccccc3c2)CC1(Br)Br (stereo unspecified)
→ .	106.2	i	1.04	-0.6	.	.
> Cc1ccccc1NC(=O)c1c(C)cc(=O)oc1C
→ .	102.2	i	0.96	.	.	.
> CC(C)(C)c1ccccc1OCCCCN1CCCC1
→ 2.7	96.2	i	0.947	-14.0	-10.3	90.2
> CC1C(C)C(O)(c2ccccc2)CCN1C (stereo unspecified)
→ -3.5	102.9	i	0.98	-5.3	-16.1	164.2
> CC1CCN(C(=O)CNC(=O)Cc2ccccc2)CC1
→ .	97.4	i	0.97	-7.5	.	.
> O=C(N/N=C/c1cccnc1)c1ccccc1OCc1ccc(Br)cc1
→ .	108.3	i	0.82	-10.6	44.4	83.7
> Cc1ccc2c(Cl)cc(Cl)c(OCC(=O)NCc3ccco3)c2n1
→ -1.3	84.0	.	.	4.4	42.3	128.2
> CSCC[C@H](NC(=O)OC(C)(C)C)c1nnc(SCC=C(C)C)o1
→ -2.6	101.3	i	0.97	-11.0	-77.1	118.9
> CC(C)COc1ccc(C(=O)OC2CC(C)(C)OCC2CN(C)C)cc1 (stereo unspecified)
→ 1.0	98.1	i	0.9	-3.0	.	.
> COc1cc(/C=C2/NC(=O)N(Cc3ccccc3F)C2=O)ccc1Oc1ccc([N+](=O)[O-])cn1
→ -0.6	31.9	i	1.07	-13.2	39.3	93.0

# Given as labelled records: entries from further up.
> Cc1ccc(NNC(=O)c2cccs2)cc1Cl
  GALR2 ag: .
  RGS16-Gao: 101.2
  HSV augment: i
  HSV augment primary fold: 1.02
  PKD1 kinase inh: .
  Insulin prom inh: .
  Insulin prom inh cell count: .

> CC1(C(=O)Nc2ccc3ccccc3c2)CC1(Br)Br (stereo unspecified)
  GALR2 ag: .
  RGS16-Gao: 106.2
  HSV augment: i
  HSV augment primary fold: 1.04
  PKD1 kinase inh: -0.6
  Insulin prom inh: .
  Insulin prom inh cell count: .

# In the list so far, five contain bromine.
# Every second line gives: GALR2 ag	RGS16-Gao	HSV augment	HSV augment primary fold	PKD1 kinase inh	Insulin prom inh	Insulin prom inh cell count
> O=C(Nc1cccc2c1CCCC2)c1ccc(Br)o1
→ -1.0	103.1	i	1.03	-22.7	26.9	104.0
> COC(=O)Cn1c(=NC(=O)c2ccc([N+](=O)[O-])s2)sc2cc(Br)ccc21
→ 0.6	115.0	i	0.91	-1.1	-25.0	48.8
> O=C(N/N=C\c1cn(-c2ccccc2)nc1-c1ccccc1)c1ccc(Br)o1
→ -1.0	102.7	.	.	-2.9	-73.3	122.0
> CC1(C(=O)Nc2ccc3ccccc3c2)CC1(Br)Br (stereo unspecified)
→ .	106.2	i	1.04	-0.6	.	.
> O=C(N/N=C/c1cccnc1)c1ccccc1OCc1ccc(Br)cc1
→ .	108.3	i	0.82	-10.6	44.4	83.7

# Remaining list, next part.
# Every second line gives: GALR2 ag	RGS16-Gao	HSV augment	HSV augment primary fold	PKD1 kinase inh	Insulin prom inh	Insulin prom inh cell count
> CC1CCCCC12NC(=O)N(Cc1cc(=O)n3ccsc3n1)C2=O (stereo unspecified)
→ .	98.9	i	1.16	.	.	.
> Cc1ccc(NC(=O)C(OC(=O)c2ccc(C=O)cc2)c2ccccc2)cc1Cl (stereo unspecified)
→ -1.3	107.1	i	0.92	-6.2	.	.
> COc1ccc(C(C)NC(=O)c2ccoc2C)cc1OC (stereo unspecified)
→ -1.9	101.1	i	1.28	-2.6	-19.8	168.2
> O=c1c2c3c(sc2nc2n1CCCS2)CCCC3
→ -2.2	90.5	i	0.97	7.5	.	.
> CCCc1nn(-c2cc(Cl)ccc2OC)c2c1C(=O)CCC2
→ 0.9	100.0	i	0.96	3.3	.	.
> COc1ccc(CCNC(=O)CSc2nncn2N)cc1OC
→ 0.0	108.1	i	1.26	-7.1	-52.5	135.1
> Cc1ccc(C(=O)C(NC(=O)c2ccco2)N2CCOCC2)cc1 (stereo unspecified)
→ -2.6	179.4	i	0.99	-1.2	25.0	116.3
> O=C(NCCNc1ccc([N+](=O)[O-])cc1)c1ccco1
→ .	110.1	i	1.15	4.9	.	.
> COc1ccc2[nH]c(=O)c(CN(CC3CCCO3)S(=O)(=O)c3ccccc3)cc2c1 (stereo unspecified)
→ .	94.3	i	0.97	9.8	.	.
> CC(C)(C)C1CCc2c(sc(NC(=O)C3CCCO3)c2C(N)=O)C1 (stereo unspecified)
→ 1.1	99.3	i	0.79	2.4	.	.
> Cc1cccn2c(CN(C)CCC3CCCCO3)c(C(=O)N3CCCCC3)nc12 (stereo unspecified)
→ .	92.1	i	1.07	1.1	.	.
> NC(N)=NN=C1CCCCCCCCCCC1
→ .	103.7	i	0.64	.	.	.
> CC1(C)Cc2ccccc2C(NNC(=O)c2cccnc2)=N1
→ -1.5	64.0	i	1	-0.1	-20.0	96.3
> CCN(CC)CC#CCC(C)(c1ccccc1)c1ccccc1
→ -1.4	91.7	i	0.86	-3.9	-8.3	87.6
> COCCn1nnnc1CN1CCC(NC(=O)Nc2cccc(OC)c2)CC1
→ -0.8	99.8	i	0.83	-2.5	.	.
> CCCCN(Cc1ccccc1)S(=O)(=O)c1ccc2c(c1)n(C)c(=O)c(=O)n2C
→ .	99.4	i	1.04	.	.	.
> O=C(NC(CO)c1ccccc1)c1ccco1 (stereo unspecified)
→ -0.4	129.8	i	0.91	-0.4	-19.4	69.5
> COC(=O)C1=C(C)NC(C)=C(C(=O)OC)C1c1ccc(OC(=O)c2ccco2)cc1
→ 1.1	102.8	i	1.09	-13.4	28.6	198.3
> O=C(NCc1ccco1)c1sc2ccccc2c1Cl
→ -0.9	104.8	i	0.82	-0.8	-11.6	90.0
> Cc1cc(CC(C)C)n(-c2nc3ccccc3c(=O)n2OCC(=O)N(C)C)n1
→ -1.6	107.2	i	0.83	-3.0	15.2	116.7
> COc1ccc(C(=O)C2CCCN(C(=O)Cn3ccc(C)n3)C2)cc1OC (stereo unspecified)
→ .	103.9	i	0.81	-8.2	.	.
> CSCCCNC(=S)N1CCN(c2ccc(C(C)=O)cc2)CC1
→ .	99.7	i	0.87	-1.9	-107.4	101.7
> C=CCOc1ccc(/C=C2\SC(=S)N(CCC(=O)O)C2=O)cc1
→ .	103.9	i	1.08	.	.	.
> CC(C)(C)C(=O)Nc1cc(S(=O)(=O)N2CCCCC2)ccc1N1CCCCC1
→ .	95.5	i	1.11	1.9	-20.0	42.5
> Cc1nc(N2CCN(C)CC2)c2cc(-c3ccccc3)sc2n1
→ .	100.5	i	0.81	0.5	17.6	88.2
> Cc1nc2ncnn2c(C)c1CCC(=O)N1CCc2ccccc2C1
→ -1.4	46.5	i	0.83	-3.3	.	.
> O=C(NCCSc1ccccn1)c1ccc(Cl)cc1
→ .	99.2	i	1.03	-8.7	-48.1	83.1
> Cn1c(N)c(C(=O)COC(=O)C2=NNC(=O)CC2)c(=O)n(C)c1=O
→ .	88.1	i	0.96	.	.	.
> COC(=O)NNC(=O)c1ccc(C(C)(C)C)cc1
→ -1.6	94.4	i	1.01	0.1	53.9	82.3
> Cc1[nH]c2ccccc2c1SCc1ccccc1
→ .	98.4	i	1.03	-4.9	-5.6	134.6
> CC(C)Oc1ccc(CC(=O)NNC(=S)Nc2ccccc2)cc1
→ .	78.5	i	0.99	.	.	.
> Nc1nc2nc(-c3ccccc3)cc(=O)n2[nH]1
→ -0.5	98.4	i	0.92	4.0	30.6	124.6
> COc1ccc2sc(NC(=O)NC(=O)c3c(Cl)cccc3Cl)nc2c1
→ .	98.6	i	0.99	.	.	.
> CN(C(=O)c1coc(=O)c2ccccc12)c1ccc(Br)cc1
→ .	100.0	i	0.99	-4.4	.	.
> CC(=O)c1c(N)c(C#N)c(C)n1-c1ccc(Br)cc1
→ -0.5	101.2	i	0.93	-8.4	0.0	123.7
> CC1CCCCN1C(=O)C12CCC(C)(C(=O)C1)C2(C)C (stereo unspecified)
→ -2.1	114.2	i	0.99	-7.4	.	.
> O=c1oc2ccccc2cc1-c1cn2cccnc2n1
→ -2.6	99.2	i	0.85	-8.1	.	.
> O=C(c1ccc(F)cc1)N1CCC(N2CCCCCC2)CC1
→ -0.4	104.6	i	0.97	-4.5	.	.
> Cn1cccc1CNC1CCCCC1
→ -0.5	50.6	i	1.05	-11.3	27.6	144.9
> CCN(CC)CCCNC(=O)c1cc(-c2ccc(Cl)cc2)on1
→ -2.6	102.5	i	0.69	-5.3	.	.
> CCOC(=O)N1CCN(S(=O)(=O)c2cccc3nonc23)CC1
→ -0.4	102.1	i	0.9	-14.4	.	.
> CC(=O)Nc1ccc(-c2cn3cccnc3n2)cc1
→ -1.1	100.8	i	1.23	-4.2	63.6	41.1
> NC(=O)Cn1nc(C(F)(F)F)c2c1CCCC2
→ .	103.5	i	0.99	-9.4	-42.9	137.7
> O=C(CSc1nc2ncc(Br)cc2[nH]1)c1ccc([N+](=O)[O-])cc1
→ -0.9	96.9	i	0.84	-3.7	.	.
> O=C(N/N=C/c1ccc(N2CCOCC2)cc1)c1ccccc1NS(=O)(=O)c1cccs1
→ .	96.2	i	0.98	3.1	.	.
> COC(=O)c1sccc1OC(C)C(C)=O (stereo unspecified)
→ -0.4	99.4	i	0.82	-3.0	34.8	127.9
> O=C(N/N=C/c1ccc(Br)s1)c1ccc([N+](=O)[O-])cc1
→ .	96.6	i	1	-0.7	-125.0	52.0
> O=C(O)CN1C(c2ccccc2)=Nc2ccc(Br)cc2C1c1ccccc1 (stereo unspecified)
→ .	102.5	i	0.91	7.7	-48.1	105.0
> CCc1[nH]c(C)c(C(C)=O)c1C
→ -2.4	101.4	i	0.94	0.8	.	.
> Cc1ccc(CC(=O)NCCS(=O)c2ccc(Cl)cc2)cc1 (stereo unspecified)
→ -1.2	112.5	i	1.17	5.0	-24.1	108.1
> COc1ccc(CCn2nnnc2C(c2ccc(Cl)cc2)N2CCN(C)CC2)cc1OC (stereo unspecified)
→ -3.2	103.2	i	0.96	-14.4	-6.1	79.8
